Vaccinia mCherry – inhibitors of vaccinia virus infection (mCherry reporter signal). AID 720579. hit rate 0.63% among 310,000. Potency, µM (top dose mostly 36.5 µM), inactives show at the top dose activity change, negative = inhibition, usual class: inhibitors. Vaccinia virus mCherry reporter infection, fluorescence; about a quarter of the inactives have no number; active = well fitted inhibition curve with a large enough effect; inconclusive = small, poorly fitted or top-dose-only effect; inactive = no such curve, though single readings can be large or run the other way; tested in A549 cells; note: nearly all actives have a fitted effect of over 35% in size; inactives centre near -10
Vaccinia Venus – vaccinia inhibition (Venus reporter); hit rate 0.46% among 330,000; Potency, µM (titrated, usually from 36.5 µM), without a hit: at the highest dose activity change, negative = inhibition, usual class: inhibitors; Vaccinia virus Venus reporter expression, fluorescence; AID 720580; active means well fitted inhibition curve with a large enough effect; inconclusive means small, poorly fitted or top-dose-only effect; inactive means no such curve, though single readings can be large or run the other way; tested in A549 cells; note: nearly all actives have a fitted effect of over 30% in size; inactives centre near -10
Active calls of the source: *; i = inactive; u = inconclusive; x = not tested or not shown; & = joins results of further samples; [ ] = remark or other dose. % is set by controls: 0 for no effect and ±100 for the full control effect; potency is the fitted concentration of half-maximal effect.

SMILES	Vaccinia mCherry	Vaccinia Venus
CCOc1ccccc1NS(=O)(=O)c1ccc2[nH]c(=O)[nH]c2c1	i	-11.0%
CCN(CC)S(=O)(=O)c1cccc(-c2nnc(SCCOc3ccc(Cl)cc3)o2)c1	-17.8%	-28.3%
O=C(C1CCN(S(=O)(=O)c2cccc3nonc23)CC1)N1CCN(c2ccc(F)cc2)CC1	-7.7%	-3.4%
C=Cc1ccc(Cn2c(C(=O)O)c(CNCc3cc(Br)ccc3OC)c3ccc(C)cc32)cc1	i	-3.0%
O=C(O)CCC(=O)Nc1ccccc1N1CCOCC1	-11.2%	-2.5%
OCc1ncc(-c2ccccc2)s1	-11.3%	-17.2%
O=C(Nc1ccc(Cl)cc1)c1sccc1-n1cccc1	-13.1%	-10.2%
CCNc1ccc(S(=O)(=O)N2CCOCC2)cc1NCC(=O)Nc1cccc(Br)c1	u	-23.6%
CC(C)Oc1cc(NC(=O)CS(=O)(=O)CC(=O)N(C)C)c(Cl)cc1Cl	-14.4%	-10.3%
CCOc1ccc(N2C(=O)CC(SC(=NC)Nc3ccc(F)cc3)C2=O)cc1 (centres undefined)	-21.0%	-16.6%
CN(CC(=O)Nc1ccc(F)cc1)C(=O)CCc1nc2ccccc2c(=O)[nH]1	i	-17.6%
O=C(COc1ccc(Br)cc1)NC(=S)Nc1ccccc1N1CCOCC1	i	-13.8%
CC(C)COc1ccc(C(=O)Nc2ccc(N3CCOCC3)cc2N2CCOCC2)cc1	i	-13.7%
Cc1ccccc1C(=O)N1CCN(c2ccc(NC(=O)c3ccco3)cc2Cl)CC1	u	u
CC1CCN(C(=O)Cn2c(=O)oc3cc(S(=O)(=O)N4CCCCC4)ccc32)CC1	-11.5%	2.6%
NC(=O)CCC(NS(=O)(=O)c1ccc(Cl)cc1)C(=O)NCC1CCCCC1 (centres undefined)	-2.1%	-5.4%
CN1CCN(S(=O)(=O)c2ccc(N(C)Cc3ccc(OC(F)F)cc3)c([N+](=O)[O-])c2)CC1	-14.2%	-21.2%
CCn1ccc2c(OCC(=O)Nc3ccc(C(C)=O)cc3)cccc2c1=O	-5.5%	-5.8%
CCOC(=O)c1ccc(N2C(=O)c3[nH]nc(-c4ccc(OC)cc4)c3C2c2cccc(O)c2)cc1 (centres undefined)	u	-24.9%
Cc1ccc(-n2c(C)nc3ccccc3c2=O)cc1C	3.9%	-23.0%
N#Cc1ccc(NC(=O)c2cc(-c3cccs3)on2)cc1	-1.9%	-8.2%
Cc1cccc(C)c1NC(=O)c1ccc2sc([C@H]3C[C@H](O)[C@@H](CO)O3)nc2c1	-7.3%	-0.4%
COCC(=O)N1CCN(c2nc3ccccc3o2)CC1	i	-11.7%
O=C(Cn1nc(Cc2cccnc2)c2ccccc2c1=O)Nc1cccc(C(F)(F)F)c1	-15.7%	-10.6%
C=CCN1C(=O)NC(=O)/C(=C/C=C/c2ccccc2)C1=O	-13.3%	20.6%
Cc1cc(C(=O)CN2C(=O)NC3(CCCc4sccc43)C2=O)c(C)n1-c1ccccc1 (centres undefined)	-3.7%	-25.7%
CCOc1ccc2[nH]c(=O)c(C(c3nnnn3Cc3ccco3)N3CCCC(C)C3)cc2c1 (centres undefined)	x	-5.5%
CCOC(=O)N1CCN(C(=O)c2ccc3c(c2)N(C)C(=O)/C(=C\c2ccc(OCC)c(OC)c2)S3)CC1	u	u
Cc1cccc(OCCOc2ccccc2C=C(C#N)C#N)c1	-0.4%	-14.4%
CN(C)c1ccc(CNC(=O)c2ccc(NC(=O)c3nsc4ccccc34)cc2)cc1	-5.1%	-2.4%
S=C1SCN(Cc2ccccc2)CN1Cc1ccco1	u	-7.0%
CCOC(=O)c1c(Nc2ccc(Cl)cc2)sc(/C=C2\C=Nc3ccccc32)c1O	-13.4%	-10.1%
Cc1cc(=O)cc(C)n1-c1ccc(Cl)c(Cl)c1	6.2%	5.8%
O=C(NCC[C@@H]1CC[C@@H](NS(=O)(=O)Cc2ccccc2)[C@@H](CO)O1)C1CC1	i	-5.8%
COC(=O)c1c(C(=O)OC)c2ccccn2c1C(=O)c1ccccc1	-13.4%	-10.2%
Cc1ccc(-c2nc3cc(Cl)ccc3o2)cc1NC(=O)COc1ccccc1C	20.5%	10.6%
Cc1cc(C)c[n+](CC(=O)c2ccc(-c3ccccc3)cc2)c1	-18.7%	-21.1%
CSc1nc(-c2ccccc2)cc(C)c1C#N	i	-2.5%
COc1ccc(CN2CCOc3c(O)cc(-c4cc(C)c5ccc(F)cc5n4)cc3C2)c(O)c1	-18.0%	-9.5%
O=C(c1ccco1)N1CCN(C(=O)C2CC(c3ccc(Cl)c(Cl)c3)=NO2)CC1 (centres undefined)	-13.6%	-21.6%
COc1ccc(NC(=O)C(=O)N/N=C/c2cccnc2)cc1	-5.1%	-1.4%
O=C(CCNC(=O)c1ccc(Cl)cc1)Nc1cccc(S(=O)(=O)N2CCCCC2)c1	-21.9%	-16.9%
COc1ccc(/C=C2/SC(=S)N(CCC(=O)Nc3cccnc3)C2=O)cc1OC	i	-9.4%
O=C(O)c1ccccc1C(=O)NC1CCN(c2nccc(C(F)(F)F)n2)CC1	-22.9%	-5.1%
Cc1cc(C)c(S(=O)(=O)NCc2ccc3c(c2)CCN3C(=O)c2ccccc2)c(C)c1	-18.3%	-13.0%
O=C(NCCc1nc2ccccc2n1CCOc1ccc2ccccc2c1)C1CCCCC1	-25.6%	-12.8%
CCN1CC=C2C(C#N)=C(N)C(C#N)(C#N)[C@H](c3ccoc3)[C@H]2C1	-14.4%	29.8%
O=C(COc1coc(CN2CCc3ccccc32)cc1=O)Nc1ccc([N+](=O)[O-])cc1	-9.2%	-5.8%
COc1cccc(OC)c1C(=O)Nc1ccc(N2CCCCC2)cc1	4.9%	10.5%
COc1ccccc1C(=O)NCC(=O)N1CCN(C/C=C/c2ccccc2)CC1	-3.3%	-16.1%
CCc1ccccc1NC(=O)C(CCSC)NS(=O)(=O)c1ccc2c(c1)oc(=O)n2C (centres undefined)	-3.1%	-2.8%
COc1nc(-c2ccc(C)cc2)ccc1-c1noc(-c2cccnc2)n1	-14.0%&-2.1%	-7.6%&-15.3%
COc1cccc(C2=C(C(C)=O)Sc3nncn3N2C(C)=O)c1	-27.1%	u
CN(C(=O)c1ccc(NC(=O)Cc2ccc(NC(=O)C3CCCN(C(=O)CCc4ccccc4)C3)cc2)cc1)C1CCCC1 (centres undefined)	10µM*	u
CCOC1=C2[C@@H](CN(S(=O)(=O)c3ccc(C)cc3)[C@H]2c2ccccc2Cl)[C@H]2C(=O)N(Cc3ccccc3)C(=O)[C@H]2C1	16.7%	-13.7%
Cc1ccc(C(=O)COC(=O)c2cc(=O)[nH]c3ccccc23)cc1C	i	-5.7%
COc1ccc(NC(=O)CSc2nnc(Cc3ccccc3)c(=O)n2N)cc1OC	-18.6%	-15.5%
Cc1ccc2nc3c(c(N)c2c1)CCN3C	-0.4%	-14.7%
CNC(=O)N(C1=NCCCCC1)c1ccc(Br)cc1	-14.5%	-5.0%
O=C(Nc1ccccc1[N+](=O)[O-])c1cc(S(=O)(=O)Nc2ccccn2)ccc1Cl	u	-2.4%

7 consecutive entries out of the list so far:
SMILES	Vaccinia mCherry	Vaccinia Venus
CN(C(=O)c1ccc(NC(=O)Cc2ccc(NC(=O)C3CCCN(C(=O)CCc4ccccc4)C3)cc2)cc1)C1CCCC1 (centres undefined)	10µM*	u
CCOC1=C2[C@@H](CN(S(=O)(=O)c3ccc(C)cc3)[C@H]2c2ccccc2Cl)[C@H]2C(=O)N(Cc3ccccc3)C(=O)[C@H]2C1	16.7%	-13.7%
Cc1ccc(C(=O)COC(=O)c2cc(=O)[nH]c3ccccc23)cc1C	i	-5.7%
COc1ccc(NC(=O)CSc2nnc(Cc3ccccc3)c(=O)n2N)cc1OC	-18.6%	-15.5%
Cc1ccc2nc3c(c(N)c2c1)CCN3C	-0.4%	-14.7%
CNC(=O)N(C1=NCCCCC1)c1ccc(Br)cc1	-14.5%	-5.0%
O=C(Nc1ccccc1[N+](=O)[O-])c1cc(S(=O)(=O)Nc2ccccn2)ccc1Cl	u	-2.4%

Additional compounds follow.
SMILES	Vaccinia mCherry	Vaccinia Venus
O=C(NC1CCCC1)C(c1ccccc1F)N(C(=O)c1ccco1)C1CCCC1 (centres undefined)	x	-5.5%
COC(=O)c1ccc(NC(=O)CSc2nnc(C(C)NC(=O)c3ccccc3Cl)n2C)cc1 (centres undefined)	-11.4%	-3.7%
COc1ccc2cc(-c3nc(Cl)c4c5c(sc4n3)CC(C)CC5)c(=O)oc2c1 (centres undefined)	5.1%	53.8%[activator]
Cn1ncc(C(=O)Nc2ccc(OC(F)(F)F)cc2)c1-n1cccc1	i	-3.9%
NC(=O)c1ccsc1NC(=O)CSc1nc2ccccc2c(=O)n1CCCO	u	-26.4%
O=S(=O)(c1ccc(Oc2ccc(S(=O)(=O)N3CCOCC3)cc2)cc1)N1CCOCC1	x	-8.8%
COc1cccc(/C=N/NC(=O)C(=O)N2CCCCCC2)c1O	12.6µM*	-26.8%
Nc1nc2ncc(-c3ccsc3)c(N)n2n1	i	-5.8%
O=C(Nc1cc(C(F)(F)F)ccc1Cl)c1nc2ccccc2nc1N1CCCCC1	-4.9%	0.6%
O=C(CCN1C(=O)C2C3CCC(C3)C2C1=O)Nc1ccccc1C(F)(F)F (centres undefined)	i	-5.9%
CCOC(=O)C1=C(C)NC(C)=C(C(=O)OCC)C1C(=O)OCC(=O)N(CC)C1CCS(=O)(=O)C1 (centres undefined)	-6.1%	-1.5%
O=C(CSc1n[nH]c(-c2ccccc2Cl)n1)N1CCN(c2ccccc2F)CC1	-11.7%	-10.9%
Clc1ccc(SCc2cc(Cl)nc(-c3ccccc3)n2)cc1	-4.8%	-2.4%
CCCNC(=O)NNC(=O)c1ccc(F)cc1	i	-7.8%
O=C(CSc1nc2[nH]ncc2c(=O)[nH]1)N1CCCC1	-11.1%	-3.7%
O=c1[nH]c2ccccc2n1C1CCN(C(CCc2ccccc2)c2nnnn2Cc2ccccc2)CC1 (centres undefined)	u	11.2µM*
COC(=O)c1c2c(nc3ccccc13)CCC2	-16.0%	-1.7%
O=C(c1ccc(Cl)c(S(=O)(=O)N2CCCC2)c1)N1CCN(c2ccc(F)cc2)CC1	u	-27.4%
O=C(c1ccccc1Cl)N1N=C(c2ccc(Br)cc2)CC1c1nc2ccccc2[nH]1 (centres undefined)	u	-27.2%
CCC(=O)N1CCc2cc(S(=O)(=O)NC(Cc3ccccc3)C(=O)Nc3cccc(OC)c3)ccc21 (centres undefined)	-10.3%	-7.0%
CC(C)(C)c1ccccc1NC(=O)Nc1nc(C(N)Cc2ccc(F)cc2)cs1 (centres undefined)	0.1%	-22.5%
CC1CCC(NC(=O)c2nn(C)c(=O)c3ccccc23)CC1 (centres undefined)	-14.8%	-16.3%
COc1cc(O)c(C(CCN2CCCC2)c2ccc(N(C)C)cc2)c(OC)c1 (centres undefined)	-7.6%	-14.3%
CC(CN1CCC(O)CC1)c1ccccc1 (centres undefined)	-8.9%	-5.4%
CCCCCOC(=O)Cn1c(N2CCOCC2)nc2c1c(=O)[nH]c(=O)n2C	i	-0.9%
COc1ccc(-c2cc(C(F)(F)F)n3nc(C(=O)N4CCC5(CC4)OCCO5)cc3n2)cc1OC	3.6%	32.1%[activator]
COc1cc(/C=N/N(CCO)C2=NS(=O)(=O)c3ccccc32)cc(OC)c1OC	i	-17.5%
CCN(CC)c1ccc2nc3c(=O)n(C)c(=O)n(C)c3nc2c1	40.2%[activator]	i
CC(C)(C)OC(=O)C[C@@H]1C/C=C\C[C@H](CC(=O)NCCO)C(=O)N2CCC[C@@H]2COC1=O	i	-4.0%
CC(=NNC(=S)N1CCN(c2ccccn2)CC1)c1ccccn1	i	-1.9%
CCOC(=O)c1sc(=NC(=O)c2cc(OC)c(OC)c(OC)c2)n(C)c1C	i	-3.2%
C/C(=N\NC(=O)c1nn(C)cc1Cl)c1ccncc1	i	-9.6%
O=C(CCC(=O)N1CC2CCCN2c2ccccc21)NCc1ccc(Cl)cc1 (centres undefined)	10.6%	-0.1%
CCOC(=O)c1ccccc1NC(=O)CSc1nc(=O)[nH]c2c1CCCC2	-0.2%[7.34 µM]	-3.8%[7.34 µM]
COc1cccc(NC(=O)NC2CCCc3ccccc32)c1 (centres undefined)	i	-17.4%
O=C(NC1CC1)c1cccc(S(=O)(=O)Nc2ccccc2F)c1	-12.7%	-6.7%
Cn1nnnc1SCCCNCc1ccccc1OCc1ccccc1Cl	-17.5%[7.34 µM]	-20.5%[7.34 µM]
CCn1c(CSc2nnc(-c3ccoc3C)n2C)nc2cc(S(=O)(=O)N(C)C)ccc21	-9.5%	-5.8%
COc1cc(CC(=O)OCC(=O)Nc2ccc(N3CCOCC3)cc2)cc(OC)c1OC	-6.0%	-19.4%
C=CCNc1nc(-c2ccccn2)nnc1-c1ccccc1	28.2µM*	u
CC(=O)N1CCN(CC(=O)Nc2ccccc2Sc2ccc(Cl)cc2)CC1	-28.1%	-21.7%
Cc1ccc(NC(=O)c2ccc(F)cc2)cc1S(=O)(=O)N1CCCCCC1	i	-24.1%
Fc1ccc2[nH]c3c(N4CCN(c5ccccc5)CC4)ncnc3c2c1	u	u
O=C(NNc1ccc(-c2csnn2)cc1)c1ccccc1C(F)(F)F	i	-19.4%
CC1(C)CC(=O)C=C(Nc2ccccc2O)C1	-14.8%[1.46 µM]	-20.0%
Cc1nc(S(=O)(=O)N2CCOCC2)c(C#N)c(C)c1Cl	-17.2%	-6.4%
CC1(C)CCC2(C(=O)O)CC[C@]3(C)C(=CCC4[C@]5(C)CCC(O)C(C)(C)C5C(O)C[C@]43C)C2C1 (some centres undefined)	-12.6%	5.1%
COC(=O)C1=C(C)NC(=O)NC1c1cn(-c2ccccc2)nc1-c1cccs1 (centres undefined)	x	u
